Screening results: PubChem, several laboratories
M1AAP inhibition = P. falciparum M1AAP inhibitors, biochemical, fluorogenic H-Leu-NHMec substrate, 1536-well (AID 1445); Aminopeptidase N (Plasmodium falciparum (isolate 3D7)); recombinant M1AAP, H-Leu-NHMec fluorogenic kinetic assay; higher % means a stronger effect; inhibition, % at 30 µM; hits with a dose series show IC50 in µM; hit rate 0.42% among 220,000;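 active means primary inhibition above the hit cutoff, then over 50% inhibition at one or more dose response concentrations, cut at about 23% in these data, passing the limit was not always enough; inconclusive means conflicting primary data, or primary hits not chosen for dose response; inactive means low primary inhibition, or under 50% at every dose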;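 further: plate controls were DMSO full reaction for no effect and no enzyme background for full effect; strong numbers were not always called active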
TNAP activators = human TNAP enzyme activators, primary screen, biochemical, luminescent, no phosphate acceptor, uHTS (AID 1001); hit rate 0.03% among 200,000; purified TNAP, luminescent activation assay, no phosphate acceptor; higher activation fold means a stronger effect; one-dose activation fold at 20 µM; EC50 in µM for titrated hits; in the data active means activation fold from about 3, or a potency from the dose series; inactive means the rest, 99 in 100 with activation fold below about 1.6; further: many of its hits are not listed in these tables
ER stress rescue = rescue of cells from ER stress-induced death, primary screen, 384-well, CSM14.1, thapsigargin, ATP luminescence (AID 1222) | CSM14.1 thapsigargin-induced death rescue, ATP luminescence; higher % means a stronger effect | cellular ATP content (survival), % at 20 µM; hits with a dose series show EC50 in µM | 190,000 tested, under 10 active;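 active means EC50 below 50 µM in the dose-response confirmation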;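 further: death triggered by thapsigargin at about 15 µM added after 2 h compound pretreatment; cell ATP read after overnight thapsigargin exposure of roughly 18 to 22 hours; normalized against plate controls of thapsigargin alone and 5% DMSO vehicle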
XIAP antagonists = XIAP antagonists, biochemical, IAP family, fluorescence polarization (AID 1018) | hit rate 0.007% among 200,000 | XIAP BIR domain, fluorescence polarization peptide displacement; higher % means a stronger effect | displacement, % at 20 µM, or IC50 in µM where a hit was titrated; in the data active means displacement above about 50%; further: a part of the inactive calls stands beside numbers as strong as those of hits
LYP phosphatase = inhibitors of LYP phosphatase, biochemical, fluorescence intensity, uHTS (AID 1779); Tyrosine-protein phosphatase non-receptor type 22 (Homo sapiens); recombinant LYP phosphatase, fluorescence intensity; higher % means a stronger effect; one-dose inhibition, % at 11.5 µM; IC50 in µM for titrated hits; hit rate 0.054% among 290,000; in the data active means inhibition above about 50%;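 further: plate controls were vehicle with enzyme for no effect and no enzyme for full effect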
M17LAP inhibition = P. falciparum M17LAP inhibitors, primary screen, biochemical, fluorogenic H-Leu-NHMec substrate, 1536-well (AID 1619); Leucine aminopeptidase (Plasmodium falciparum (isolate 3D7)); recombinant M17LAP, H-Leu-NHMec fluorogenic kinetic assay; higher % means a stronger effect; one-dose inhibition, % at 30 µM; IC50 in µM for titrated hits; hit rate 0.38% among 220,000;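 active means compound inhibiting the enzyme by more than half at any dose during confirmatory dose-response retesting; inconclusive means strong single-dose inhibitors picked by rank but not retested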;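 further: plate controls were full reaction with DMSO carrier for no effect and no enzyme background for full effect; strong numbers were not always called active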
Myeloid diff 2 = induction of myeloid progenitor differentiation, primary screen, cell-based, flow cytometry, MLPCN library; ER-HoxA9 myeloid progenitors, lysozyme-GFP differentiation; calls only at 10 µM; hit rate 1% among 360,000;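 active means normalized GFP-positive differentiation at or above the plate's own cutoff, the solvent-only control mean plus 3 SD; inconclusive means no clear call, values can overlap the other calls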;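 further: cells exposed to compound for four days before flow analysis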
Myeloid diff 2 GFP+ MAC1+ % = second read-out of Myeloid diff 2, no call of its own (marks repeat the call); GFP+ MAC1+ double positive, %; measured here: differentiation confirmed by MAC1 staining
* marks the source's active call; other numbers are inactive results; i = inactive; ? = inconclusive; . = not tested or not shown; + = active, no number; & = joins results of further samples; ! = repeats disagree. An excerpt, so the mix of outcomes need not match the whole.

SMILES	M1AAP inhibition	TNAP activators	ER stress rescue	XIAP antagonists	LYP phosphatase	M17LAP inhibition	Myeloid diff 2	Myeloid diff 2 GFP+ MAC1+ %
O=C(Cc1cc(=O)[nH][nH]1)N/N=C/C(Cl)=C/c1ccccc1	14%&20%	1.1&1.1	2.4%&3.4%	-4.2%&-7.0%	-2%&-5%	91µM*!	i	0.2&3.8
CCc1nnc(NC=C2C(=O)OC(C)(C)OC2=O)s1	7%	1	-1.3%	-6.8%	0%	2%	i	4.4
O=C(c1ccco1)N1CCN(C(=O)c2ccc(COc3ccc4c(c3)CCC4)o2)CC1	18%	1.1	-0.3%	-22%	-6%	3%	?	.
CCCCOP(=O)(c1ccc(N(C)C)cc1)C(O)c1cccnc1 (centres undefined)	1%	1	0.7%	-1.8%	-7%	8%	i	2.3
CCCNC(=O)c1ccccc1NC(=O)COc1ccc(OC)cc1	-2%	1.1	-0.6%	-5.9%	-4%	5%	i	7.4
COC(=O)C1(O)CC(C(C)C)=NN1C(=O)c1ccc(Cl)cc1 (centres undefined)	9%	1	-2.9%	1.4%	11%	15%	i	1.0
CC1C/C(=N/O)C(C)CN1 (centres undefined)	0%	1.1	0.8%	-1.9%	-11%	10%	i	0.9
CCOCC(=O)Nc1cc(C(F)(F)F)ccc1Oc1cccc(Br)c1	6%	1.1	-0.3%	0.0%	-4%	-2%	i	0.9
CCC(C)C(NC(=O)OC(C)(C)C)C(=O)NCc1ccco1 (centres undefined)	6%	1.1	-0.1%	-2.3%	-4%	4%	i	0.4
CCN1CCN(C(=O)CS(=O)Cc2nc(-c3ccc(OC)cc3)oc2C)CC1 (centres undefined)	-2%	1	-1.3%	-7.4%	2%	1%	i	2.2
CC(c1ccc(F)cc1)n1c(-c2ccc3ccccc3n2)n[nH]c1=S (centres undefined)	9%	0.8	-0.5%	-4.6%	10%	7%	i	1.5
Cc1ccccc1C(=O)Nc1ccccc1-c1nnn(CC(=O)Nc2ccc3c(c2)OCCO3)n1	-1%	1	-1.7%	-6.6%	-6%	7%	i	2.0
CCCOc1ccc(N2CC(C(=O)NC(C)C)CC2=O)cc1 (centres undefined)	-1%	1.1	-2.3%	-4.9%	-6%	3%	i	1.6
O=C(NCc1ccco1)c1ccc(N2CCCC2=O)cc1	5%	1.1	-0.7%	-17%	-2%	15%	i	1.1
O=C1NC(=O)C(c2ccccc2)(c2ccccc2)N1	1%&-9%&-1%	1&1.1&1.1	-1.2%&-2.6%&-2.0%	-5.4%&-1.0%&-6.5%	0%&-5%&-2%	-19%&3%&-9%	i	1.6&2.2
CC(=O)c1c(C)[nH]c(C(=O)N2CCc3ccccc3C2)c1C	2%	1.1	-0.6%	-5.9%	-4%	1%	i	0.6
Cc1cccc(C(=O)NC2CCN(C(=S)NCc3ccco3)CC2)c1	113µM*	1.1	-3.6%	-0.6%	-4%	14%	i	6.4
Cc1cccc(CSc2ncc(CO)n2C)c1	4%	1	2.3%	-3.7%	-9%	3%	i	0.8
Cc1ccc(OCCn2c(CCNC(=O)C(C)C)nc3ccccc32)cc1	4%	1.1	-1.1%	0.5%	-8%	2%	i	0.7
O=C(NCC1CCCO1)C1CC(=O)N(C2CCCCCC2)C1 (centres undefined)	5%	1.1	-0.8%	0.6%	0%	-8%	i	1.3
Cc1c(CCOC(=O)C2C3CC4CC(C3)CC2C4)sc[n+]1CC(=O)c1ccc(Br)cc1 (centres undefined)	0%	0.9	-0.6%	-2.1%	-11%	8%	i	1.8&1.8
Cc1ccc(C(=O)CSc2ncnc3sc4c(c23)CCCC4)cc1	-12%	1.1	-0.3%	-4.2%	-6%	0%	i	0.8
COc1ccccc1NC(=O)CSc1nccc(=O)[nH]1	13%	1.1	-1.0%	-1.5%	-4%	28%	i	0.6
CCCCNC(=O)C(CC)Sc1nc2sc(C(=O)OC)c(C)c2c(=O)n1N (centres undefined)	-2%	1	-0.4%	-1.4%	2%	1%	i	1.4
O=C(Cc1ccccc1)NC(NCCc1ccccc1)C(Cl)(Cl)Cl (centres undefined)	4%	1	2.5%	-4.5%	0%	12%	i	1.7
O=C(Cc1ccc(Cl)cc1)N1CCN(C(=O)c2ccco2)CC1	0%	1.1	-0.4%	-0.6%	-5%	-4%	i	1.0
CC(=O)N1N=C(c2ccc(C)o2)CC1c1ccc(Br)cc1 (centres undefined)	5%	1.1	-4.8%	0.4%	7%	12%	i	9.3
Cc1ccc(C)n1CCN1CCN(CC(=O)Nc2ccc(S(N)(=O)=O)cc2)CC1	-2%	1.1	-0.8%	-5.4%	-12%	3%	i	0.3
O=C(Cn1c(SCC(=O)N2CCc3ccccc3C2)nc2ccccc21)NC1CCCC1	8%	1	2.4%	-2.9%	-10%	4%	i	0.6
Cc1ccc(OCCCN(C)C)c(Br)c1	3%	1.1	-1.5%	-3.0%	-8%	17%	i	0.2
COC(=O)c1ccc(COc2ccccc2/C=N/NS(=O)(=O)c2ccc(C)cc2)cc1	6%	1.1	-1.3%	-0.4%	2%	8%	i	3.8
Cc1nn(CC(=O)N2CCOCC2)c(C)c1[N+](=O)[O-]	5%	1.1	-0.8%	-4.3%	-7%	-2%	i	0.9
COc1ccc(N2C(=O)CCC(C(=O)N3CCC(C(N)=O)CC3)C2c2ccc(F)cc2)cc1 (centres undefined)	3%	1.1	-1.0%	-3.3%	-6%	2%	i	1.0
O=C(O)c1c[nH]c2cc(C(F)(F)F)ccc2c1=O	-1%	1	0.0%	-1.5%	-11%	-5%	i	0.7
CC(=O)Nc1cccc(N2C(=O)CCC2=O)c1	3%	1	-0.6%	-3.6%	-8%	-4%	i	1.6
CCCCn1ccnc1C(=O)c1ccc(S(=O)(=O)N(CCOC)CCOC)cc1	2%	1.1	-0.7%	-7.7%	1%	3%	i	1.5
Cc1cccc(NC(=O)Cn2c(=O)n3nc(CCn4nc(C)cc4C)nc3c3ccccc32)c1	-6%	1.1	-0.8%	-3.4%	-8%	5%	i	0.5
O=S(=O)(Cc1ccc(Cl)cc1)c1ccccc1-c1nnc(-c2ccc(Cl)cc2)o1	2%	1.1	5.7%	-0.4%	2%	-10%	i	0.7
O=C(/C=C/c1ccc(F)cc1)NCCC1=CCCCC1	3%	1.1	2.9%	-21%	-6%	12%	i	0.3
CN1CCN(CC(O)c2ccccc2)CC1 (centres undefined)	-2%	1	-0.8%	-22%	-4%	3%	.	.
Cc1ccc(/C=N/n2nnnc2N)cc1[N+](=O)[O-]	-3%	1.1	-2.9%	-2.4%	-13%	4%	i	0.6
CC(C)C(=O)N1CCN(C2=NS(=O)(=O)c3ccccc32)CC1	1%	1.1	-1.8%	-4.4%	-8%	2%	i	0.6
O=C(CN(Cc1ccco1)C(=O)c1ccccc1)Nc1ccc(Cl)c(Cl)c1	6%	1.1	5.6%	-6.2%	0%	-3%	i	0.8
CCOc1ccc(NC(=O)C(C)Oc2ccccc2C(=O)Nc2ccc(C)c(Cl)c2)cc1 (centres undefined)	-2%	1.1	1.5%	-4.3%	5%	0%	i	0.2
CC1=C(C(N)=O)C(c2ccccc2)n2nc(-c3ccncc3)nc2N1 (centres undefined)	-6%	1	0.1%	-0.2%	2%	15%	i	1.5
Cn1cnnc1SCC(=O)N1N=C2/C(=C/c3ccco3)CCCC2C1c1ccco1 (centres undefined)	2%	1.1	-2.5%	0.7%	-5%	25%	i	1.7
Cc1nc(-n2nnc3cc(C)c(C)cc32)c2c3c(sc2n1)CCCC3	8%	0.9	0.3%	-3.3%	4%	5%	+	5.6*
CCCS(=O)(=O)N1CCCC(C(=O)N2CCOCC2)C1 (centres undefined)	-1%	1.1	3.4%	-3.4%	1%	-1%	i	0.7
N/C(=N\OC(=O)c1cccc(Br)c1)c1ccc(Br)cc1	-4%	1.1	-1.8%	-3.9%	-3%	8%	i	1.1
Cc1ccc(NC(=O)Cn2nc(C)c3ccccc3c2=O)cc1F	0%	1.1	-0.1%	-5.7%	-3%	14µM*	i	1.0
CCCC(=O)NC(Nc1ccccc1OC)C(Cl)(Cl)Cl (centres undefined)	6%	1	0.1%	-5.2%	-3%	-11%	i	3.3
CC1CN/C(=C\C(=O)c2ccccc2)C(=O)N1 (centres undefined)	0%	1.1	-1.6%	-4.1%	-7%	7%	i	0.4
O=C(Oc1ccccc1)c1c(Cl)cccc1P(=O)(O)O	3%	0.9	-2.7%	-1.2%	-12%	13%	i	0.6
CCOC(=O)Cn1nc(Cc2ccccc2)c2ccccc2c1=O	-4%	1	0.9%	-5.9%	1%	-5%	i	1.5
CCN(CC)c1nc(Nc2ccccc2)nc(Oc2ccc(C(=O)OC)cc2)n1	-5%	1.1	-0.2%	-5.9%	0%	6%	i	4.2
CCCCc1c(CCC)c(=N)c2ccccc2n1C	20%	1.1	-0.7%	-3.2%	1%	6%	i	1.4
CN(C)/C=C(\C#N)C(=O)c1cccnc1Oc1ccc(F)cc1F	-1%	1.1	1.7%	-5.6%	-10%	-17%	i	2.1
C/C(=N/OC(=O)c1ccc(F)cc1)c1ccc(C)cc1	4%	1.1	-1.0%	-2.9%	-6%	2%	i	1.4
O=C(NC(Cc1c[nH]c2ccccc12)c1nnc2n1CCCCC2)c1ccc(Cl)cc1 (centres undefined)	7%	1	-0.2%	-0.9%	-8%	5%	i	1.4
O=C(Oc1cc2oc(=O)cc(-c3ccccc3)c2cc1Cl)C1CCCCC1	-1%	1.1	1.5%	2.0%	-6%	-9%	i	0.8
Other entries
SMILES	M1AAP inhibition	TNAP activators	ER stress rescue	XIAP antagonists	LYP phosphatase	M17LAP inhibition	Myeloid diff 2	Myeloid diff 2 GFP+ MAC1+ %
Cc1cc(OC(C)C)nc(NCc2ccccc2)n1	1%	1.1	-2.0%	-2.5%	-4%	-15%	i	1.3
O=C(Cn1ncc2c1-c1ccccc1OC2)N1CCc2ccccc21	2%	1.1	.	-0.4%	-1%	14%	i	2.3
Cc1ccnc(SCC(=O)Nc2sc3c(c2C#N)CCC(C(C)(C)C)C3)n1 (centres undefined)	0%	1.1	-0.8%	-3.4%	4%	-2%	i	0.3
CCOC(=O)c1ccc(NC(=O)CSc2nc3c(c(=O)n2CC)SC(C)C3)cc1 (centres undefined)	6%	1.1	-3.2%	-4.3%	4%	7%	i	4.2
Brc1ccc(-c2csc(N3CCc4ccccc4C3)n2)cc1	-3%	0.9	-0.1%	-5.1%	-8%	-14%	i	1.7
Cc1cc(C)c2c(-n3cccc3)c(C(=O)NNS(=O)(=O)c3ccc(Br)cc3)sc2n1	?	1	-3.4%	-4.5%	4%	13%	i	0.8
Cc1cccc(Oc2ncnc3onc(C)c23)c1C	-1%	1.1	1.9%	-2.0%	-8%	6%	i	1.3
O=C(CN1C(=O)C2C3C=CC(C3)C2C1=O)Nc1cccc2c1CCCC2 (centres undefined)	-1%	1.1	-1.2%	-3.7%	1%	17%	i	1.0
Cc1ccc(S(=O)(=O)/N=C(\c2ccc(Cl)cc2)N2CCOCC2)cc1	-2%	1.1	-2.0%	-3.9%	-10%	8%	i	0.3
Cc1cc(C)cc(N(C(=O)c2csnn2)C(C(=O)NC(C)(C)C)c2cccs2)c1 (centres undefined)	8%	1	3.1%	-6.4%	-8%	4%	i	4.7
